Screening results: PubChem, several laboratories
LANA-H2B inh = blocks KSHV LANA binding to histone H2A/H2B | 320,000 compounds, 0.6% hits | cell-free LANA-H2A/H2B peptide, fluorescence polarization | Q9QR71 | AID 2629 | inhibition, % (concentration not given with the values); in the data active = inhibition mostly above about 10%, no sharp cut-off; inactive = mostly below about 6.7%;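 also: stock transfer was 7.5 nL into about 10 µL; 0% = median of vehicle wells and 100% = median of positive control wells; one replicate is shown; the record names a cut of 25% in any replicate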
Target sequence (Q9QR71 whole entry, looked up): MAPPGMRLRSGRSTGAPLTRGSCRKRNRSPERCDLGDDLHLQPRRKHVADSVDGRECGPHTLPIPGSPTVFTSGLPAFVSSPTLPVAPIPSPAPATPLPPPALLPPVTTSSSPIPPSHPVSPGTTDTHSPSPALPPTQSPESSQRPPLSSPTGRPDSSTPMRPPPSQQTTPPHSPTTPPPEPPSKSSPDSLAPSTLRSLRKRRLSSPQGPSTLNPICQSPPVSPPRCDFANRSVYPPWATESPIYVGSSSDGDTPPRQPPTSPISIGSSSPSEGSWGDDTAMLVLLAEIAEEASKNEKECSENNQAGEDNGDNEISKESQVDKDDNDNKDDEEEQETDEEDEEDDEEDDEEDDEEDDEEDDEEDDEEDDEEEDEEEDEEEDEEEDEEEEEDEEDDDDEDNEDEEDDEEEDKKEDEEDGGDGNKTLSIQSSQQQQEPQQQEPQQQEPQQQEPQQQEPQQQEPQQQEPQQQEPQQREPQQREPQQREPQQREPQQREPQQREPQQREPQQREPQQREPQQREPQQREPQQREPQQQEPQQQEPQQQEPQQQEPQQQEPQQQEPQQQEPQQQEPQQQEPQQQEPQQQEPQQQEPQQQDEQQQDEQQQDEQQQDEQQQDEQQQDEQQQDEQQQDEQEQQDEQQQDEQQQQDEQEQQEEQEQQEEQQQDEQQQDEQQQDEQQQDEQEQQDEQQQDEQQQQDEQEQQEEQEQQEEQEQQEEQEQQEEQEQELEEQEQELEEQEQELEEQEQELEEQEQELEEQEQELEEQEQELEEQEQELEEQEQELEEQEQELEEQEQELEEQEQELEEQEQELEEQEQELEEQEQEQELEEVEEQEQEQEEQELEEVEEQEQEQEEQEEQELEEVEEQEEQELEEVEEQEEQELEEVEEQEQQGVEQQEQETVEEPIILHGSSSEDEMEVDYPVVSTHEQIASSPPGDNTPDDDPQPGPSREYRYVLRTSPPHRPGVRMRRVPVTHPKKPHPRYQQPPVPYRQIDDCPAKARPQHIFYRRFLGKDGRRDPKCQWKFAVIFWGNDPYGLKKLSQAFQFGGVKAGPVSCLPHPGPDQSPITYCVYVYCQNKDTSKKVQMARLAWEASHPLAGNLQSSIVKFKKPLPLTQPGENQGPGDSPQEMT
ALR H2O2 inh = blocks human ALR sulfhydryl oxidase activity; purified ALR, DTT oxidation, H2O2 HRP-luminol luminescence; inhibition, % (concentration not given with the values); 290,000 compounds, 3.8% hits;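 active = mean and each replicate at 75% or more; inconclusive = only one of the two met; inactive = neither met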;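 also: stock transfer was 7.5 nL into about 7.5 µL; 0% = neutral wells and 100% = wells with inactivated enzyme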
Vif TR-FRET = inhibitors of Vif binding to APOBEC3G peptide, primary screen, biochemical, TR-FRET, GST-Vif 1-94, biotin-A3G peptide, dose response retest (AID 1117319); TR-FRET GST-Vif / biotin-A3G peptide binding; higher % means a stronger effect; test concentration not given here; strong numbers were not always called active; one-dose inhibition, %; IC50 in µM for titrated hits; 260,000 compounds, 0.57% hits;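 active = above the screen mean plus three standard deviations and confirmed in dose response; inconclusive = results disagree or hit not tested in dose response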;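 also: Vif residues 1-94 fused to GST binding biotinylated APOBEC3G peptide 110-148; 0% = full assay without inhibitor and 100% = GST in place of GST-Vif; retest series ran down from 100 µM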
HNF4A DNA FP = change in binding of human HNF4 alpha to DNA; P41235; HNF4a-FITC DNA binding, fluorescence polarization, 1 h; activity change, % at 10 µM; 360,000 compounds, 0.3% hits; AID 1224865; in the data active = activity change above about 30%, passing the limit was not always enough;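 also: controls were the assay level and a saturating level of protein; the project sought stronger binding though the title names inhibitors; some compounds called inactive have numbers as strong as hits; positive values seem to mean higher polarization but the record does not say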
RanGTP-Imp inh = disruptors of Ran-importin-beta complex formation – biochemical, FRET, CFP-Ran, YFP-importin-beta, homogeneous, primary screen | cell-free CFP-Ran/YFP-importin-beta FRET ratio | inhibition, % (no concentration beside the values) | 300,000 compounds, 1.1% hits | AID 2216;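 active = most replicates above 15%; inconclusive = exactly half above 15%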;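 also: 0% = DMSO wells and 100% = Ran loaded with GDP instead of GTP; wells of about 40 µL received 100 nL stock; the first replicate is given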
Calb FLC = affects C. albicans growth with fluconazole; 300,000 compounds, 0.57% hits; growth inhibition, % (concentration not given with the values); C. albicans CaCi-2 (fluconazole-resistant clinical isolate) + fluconazole, Alamar Blue growth, 48 h;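 active = most replicates above 75%; inconclusive = exactly half above 75%; inactive = most below 75%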;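 also: all wells also contain fluconazole at 8 µg/ml as a sub-toxic cotreatment; 0% = median of DMSO wells and 100% = median of geldanamycin control wells; wells of about 8 µL received 7.5 nL stock; the first replicate is given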
B2AR ag = agonists of human beta-2 adrenergic receptor inducing internalization. P07550. Am2.2-beta2AR cells, FAP receptor internalization, flow cytometry; reference of the scale not given here. response, % (concentration not given with the values). 340,000 compounds, 0.43% hits;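 active = response above a set limit, near 3 SD of response in nonfluorescent compounds, cut at about 42% in these data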;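 also: stock transfer was 100 nL into about 11 µL; a reference agonist was the positive control; negative values mostly stem from fluorescent compounds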
Starred values were filed as active, the others as inactive; ? = inconclusive; . = not tested or not shown; & = joins results of further samples.

SMILES	LANA-H2B inh	ALR H2O2 inh	Vif TR-FRET	HNF4A DNA FP	RanGTP-Imp inh	Calb FLC	B2AR ag
Cc1cccc(-n2nc3c(c2NC(=O)CCCl)CSC3)c1	0.2	-4.0	-12.6%	-2.0	-0.8	7.6	2.1
Cn1ncc(Cl)c1C(=O)Nc1cccnc1	-3.1	-8.6	30.1%	0.2	-1.4	-11.5	5.5
Cc1c(NC(=O)CN2CC(C)OC(C)C2)c(=O)n(-c2ccccc2)n1C (centres undefined)	1.2	-6.0	-6.7%&3.4%	1.4&0.9	.	.	-3.1&-8.8
Cc1cc(C)c(S(=O)(=O)N2CCCCC2)c(C)c1N(C)S(=O)(=O)c1ccc(Cl)cc1	0.1	-3.1	13.2µM*	3.8	-1.8	0.4	-4.4
CCOc1ccccc1CN1CCNC(=O)C1CC(=O)NCc1ccccn1 (centres undefined)	7.3	-1.9	.	-3.7	-1.3	9.9	7.0
O=S(=O)(Nc1ccc(-c2cnco2)cc1)c1ccccc1	3.3	4.2	-6.0%	-1.3	0.1	14.4	2.8
COc1cc(/C=C(\C(=O)O)c2ccc(S(=O)(=O)N3CCCC3)s2)cc(OC)c1	.	.	21.3%	-3.8	.	.	-2.3
CCOC(=O)N1CCC(NC(=O)c2sc3nc4n(c(=O)c3c2C)CCCC4)CC1	-2.8	-1.7	-0.2%	3.4	?	6.0	-20.2
O=C(CSc1nnc(Nc2ccccc2)s1)NCCN1C(=O)CSC1=O	1.4	3.7	25.9%	0.6	-2.6	-7.9	-4.2
CCN(CC)c1ccc(C2C(C(=O)OCCOC(C)C)=C(C)NC3=C2C(=O)CCC3)cc1 (centres undefined)	-0.3	98.8*	19.0%	-1.0	1.9	-4.6	-15.3
Cc1ccccc1C(O)c1ccncc1 (centres undefined)	6.2	-8.0	-3.7%	2.3	-0.3	-2.6	-4.1
c1cc2c(cc1-c1csc(NNC3=NCCCCC3)n1)OCCO2	3.3	98.5*	1.4%	.	-2.0	18.7	.
CC(=O)Nc1ccc(S(=O)(=O)Nc2ccc(C)c([N+](=O)[O-])c2)cc1	0.1	-1.2	5.0%	-1.8	-6.4	-19.8	-5.9
CC(Oc1ccc(Cl)cc1)C(=O)OCC(=O)Nc1ncc(Cl)cc1Cl (centres undefined)	-16.0	.	4.9%	-0.2	1.9	1.2	-5.4
Cc1ccc2scc(CN3CCCC3)c2c1	-5.1	-14.2	.	3.2	3.8	-7.3	2.4
CCOc1ccccc1NC(=O)CSc1nnc(CNC(=O)c2cccs2)o1	2.3	-17.7	.	4.6	5.0	-2.5	-1.2
Cn1c(=O)c2cc(S(=O)(=O)NCCC(=O)NC3CCCCCC3)ccc2n(C)c1=O	11.2	-1.8	19.0%	0.2	-1.1	3.0	-14.5
O=C(c1ccccc1)N1CCN(CC#CC2(O)CCCCC2)CC1	-6.9	4.5	2.2%	0.0	5.7	7.7	-1.2
COCCNc1ccc([N+](=O)[O-])cc1C(=O)Nc1cccc(C)n1	-4.3	.	0.5%	8.9	1.7	-3.8	-0.7
CS(=O)(=O)N(CC(=O)N1CCN(c2ccc(F)cc2)CC1)c1ccc(F)c(Cl)c1	-0.6	55.5	9.6%	3.0	3.8	?	10.6
Cc1nn(CCCC(=O)Nc2cccnc2)c(C)c1[N+](=O)[O-]	1.4	.	1.1%	0.1	-4.3	-3.4	-0.9
O=C(Cc1ccccc1)NCC(=O)OC(c1ccccc1)c1ccccc1	-1.9	-4.1	1.5%	1.5	-3.1	0.1	2.7
CN(C)/N=C/c1ccc(Sc2ccc([N+](=O)[O-])cc2[N+](=O)[O-])o1	-1.4	15.3	.	4.3	4.7	5.7	12.1
COC(=O)N/N=C/c1c(C)nn(-c2cccc(Cl)c2)c1Cl	.	.	.	2.8	1.1	?	-3.2
CN(CCOc1ccccc1)C(=O)c1cc(S(=O)(=O)N2CCOCC2)ccc1Cl	-3.3	-0.2	6.0%	-0.6	-0.8	-3.0	-2.3
Cc1nc2cc(NC(=O)CS(=O)(=O)c3ccc(F)cc3)ccc2s1	2.0	0.6	-4.3%	-0.7	-0.7	2.7	-2.1
C=CCOc1ccc2nc(NC(=O)OC)[nH]c2c1	-4.1	-8.3	31.5%	0.1	-0.6	67.3	30.3
O=C(CCC(=O)N(CC(=O)NC1CCCCC1)Cc1ccc(F)cc1)Nc1nccs1	-5.4	-4.1	.	1.4	3.4	-3.4	-8.0
CC1(C)Cc2c(C#N)c(N3CCN(C(=O)c4ccccc4)CC3)nc(Cc3ccccc3)c2CO1	-0.5	-5.3	25.3%	-0.9	-1.1	0.5	0.1
CC(=O)Nc1ccc(C(=O)OCC(=O)c2ccc(S(=O)(=O)N3CCCCC3)cc2)cc1	-1.7	-11.2	-2.4%	2.6	2.3	-0.2	8.8
CCc1noc(C)c1C(=O)Nc1cc(Cl)ccc1-n1cncn1	-0.4	.	-9.3%	0.3	-0.6	3.2	9.9
Cc1cc2c(c(=O)n1Cc1ccccn1)C(C(C)C)C(C#N)=C(N)O2 (centres undefined)	6.0	.	0.1%	-4.2	-0.1	-8.3	-3.4
COc1ccc2c(c1)[nH]c1c(=O)n(/N=C/C3C(C)C=C(C)CC3C)c(=O)[nH]c12 (centres undefined)	2.3	0.6	21.1%	2.0	0.8	6.5	8.0
Cc1ccc(C(=O)COC(=O)CN2C(=O)C3CC=CCC3C2=O)cc1[N+](=O)[O-] (centres undefined)	9.1	-6.1	-3.3%	0.0	-4.4	-1.9	4.2
O=C1Cc2ccccc2N1c1c(Cl)cccc1Cl	1.2	0.2	?	2.5	-0.6	-0.8	17.3
Cc1cc2ccccc2c(=O)n1CC(=O)NCC(=O)N(C)Cc1ccccc1	-8.2	-0.2	-2.4%	3.1	0.1	4.8	1.3
CSc1ccccc1OCc1cc(C(=O)NCCc2ccco2)no1	-0.3	-3.0	.	4.6	1.0	-13.1	-1.9
Cc1c(NC(=O)C(C#N)=C2CCCCC2)c(=O)n(-c2ccccc2)n1C	0.7	-20.5	4.4%	-3.1	?	0.1	-0.9
O=C(O)CCCN1C(=O)/C(=C/C=C/c2ccco2)SC1=S	4.1	?	.	-55.7	-8.8	13.3	8.6
COc1ccc(OCC(O)CN2CC(C)OC(C)C2)cc1 (centres undefined)	-0.6	-5.5	3.0%	-0.5	?	5.2	-7.6
O=C(/C=C/c1ccccc1)Nn1cnnc1	-5.5	-5.9	-6.0%	0.9	-0.5	-14.6	-4.7
CNc1nc2ccccc2n(C)c1=O	-3.7	-0.9	-14.2%	1.8	1.5	-19.0	-2.6
COc1ccc(Cl)cc1C(=O)NCC(c1ccco1)N(C)C (centres undefined)	-0.8	-2.8	.	-2.0	2.3	2.0	-6.7
O=C(CCCOc1ccccc1)N1CCCCC1	1.5	.	1.6%	0.3	4.7	1.2	4.2
CN(C)CCN(C(=O)c1ccc2c(c1)CCCC2)c1nc2cc3c(cc2s1)OCCO3	-2.6	-53.8	.	3.6	3.1	15.5	6.9
Cc1ccc(C(=O)Nc2nc3ccccc3c(=O)s2)cc1	-3.2	2.4	9.2%	2.6	3.6	86.9*	-8.0
O=C(C(c1ccccc1)C(O)c1ccccc1)N1CCOCC1 (centres undefined)	.	.	-0.4%	4.5	.	.	-1.4
Cc1cccc(C)c1OCCCCn1cnc2ccccc2c1=O	0.0	-1.4	1.2%	-1.8	-3.9	18.6	-8.6
COc1ccc(N2CC(NC(=O)c3cccc4ccccc34)CC2=O)cc1OC (centres undefined)	-0.5	.	3.3%	2.5	2.2	-0.5	-0.8
Cc1cc(C)c(C(=O)O)c(CC(C)(C)C(=O)O)c1	-0.3	-10.1	.	-4.4	5.6	-4.2	1.1
CCOc1ncccc1C(=O)Nc1ccc(F)c(Cl)c1	7.4	-10.5	.	0.6	1.5	-9.6	2.9
CCc1ccc(NC2=CC(=O)C(=O)c3ccccc32)cc1	.	.	-5.7%	-0.1	.	.	4.3
CC(=O)N(/C=C1\SC(=S)N(c2ccccc2)C1=O)c1ccccc1	-9.1	38.3	6.9%	4.5	-3.6	-1.6	13.9
Cc1csc(NC(=O)c2ccc(C(=O)Nc3nc(C)cs3)cc2)n1	-2.2	1.9	?	.	2.2	14.0	.
COc1ccnc(N2CCN(c3ccc(Cl)cc3)CC2)c1C#N	-5.8	43.9	-2.0%	-2.3	2.3	-2.5	-4.8
CCOC(=O)c1cnc2c(C)cc(C)cc2c1NCCCN1CCOCC1	7.0	14.4	.	1.9	0.1	?	2.0
CC1C(=O)N2CCCc3cc(S(=O)(=O)N(C)CCC#N)cc1c32 (centres undefined)	3.7	3.2	1.7%	-8.5	0.8	2.9	1.8
Cc1cc(C)cc(N(C(=O)c2ccco2)C(C(=O)NC2CCCC2)c2ccncc2)c1 (centres undefined)	-0.4	.	.	-5.1	3.5	-7.9	7.8
Cn1c(N/N=C/c2cccs2)cc(=O)n(C)c1=O	-2.3	26.6	4.0%	-2.8	5.6	28.5	2.1
CN(C)CCCN1c2ccccc2Sc2ccc3ccccc3c21	.	.	11.2%	2.2	.	.	17.8
Next part.
SMILES	LANA-H2B inh	ALR H2O2 inh	Vif TR-FRET	HNF4A DNA FP	RanGTP-Imp inh	Calb FLC	B2AR ag
Fc1ccccc1-c1csc(-c2cccnc2)n1	-0.1	-0.2	1.9%	3.4	-1.0	-2.1	-5.8
COc1ccc(C(=O)NC(=S)Nc2cccnc2)cc1[N+](=O)[O-]	-0.8	15.1	.	-0.8	-0.3	-0.2	-14.9
COCCN1C(=O)C(=O)/C(=C(/O)c2ccc(S(=O)(=O)N3CCCCC3)cc2)C1c1ccc(OC)c(OC)c1 (centres undefined)	-1.7	-2.2	0.3%	-1.7	-0.5	-2.7	1.7
COCCN(C(=O)COC(=O)COc1ccc(Cl)c(C)c1)c1c(N)n(Cc2ccccc2)c(=O)[nH]c1=O	-1.2	4.8	.	2.3	-3.2	3.0	0.1
CCCSc1oc(-c2ccco2)nc1S(=O)(=O)c1ccccc1	3.4	-0.7	0.2%	2.1	-0.4	5.2	-5.2
OCCNC(=S)NC1CCCCC1	1.2	-3.8	25.3%	-3.0	-1.4	-19.0	7.5
CC(OC(=O)CNC(=O)C12CC3CC(CC(C3)C1)C2)C(=O)Nc1ncc(Cl)cc1Cl (centres undefined)	0.4	-6.8	6.3%	2.6	3.0	8.6	-5.2
NC(=S)NN=C(Cc1ccccc1)Cc1ccccc1	4.2	-47.5	0.7%	1.3	6.8	-2.8	-14.1
CC1(C)c2[nH]c3ccccc3c2C[C@@H]2C(=O)N(c3cc(F)ccc3F)C(=O)N21	0.9	-9.7	.	-1.4	2.4	8.3	6.2
COc1ccc(C(=O)N(Cc2ccc(N(C)C)cc2)C2CCS(=O)(=O)C2)cc1 (centres undefined)	1.7	39.2	-3.5%	-2.2	-8.7	.	1.1
Cc1ccc[n+](C(C)C(=O)Nc2ccc([N+](=O)[O-])cc2C)c1 (centres undefined)	0.0	-3.4	7.4%	-1.2	5.5	-8.3	-4.6
Cc1nnc(SCC(=O)Nc2cc(-c3cc(C)c(C)cc3C)nn2-c2ccccc2)s1	-4.0	0.8	.	4.7	7.0	11.6	-5.0
c1ccc2c(c1)nc1n2CCN1	11.1	55.5	.	5.9	-0.3	-3.8	2.7
N/C(=N\c1nc2ccccc2o1)NC(=O)c1ccc([N+](=O)[O-])cc1	7.0	-3.7	2.5%	2.1	4.0	-5.9	-0.7
